# PABP FP inh = PABP-poly(A) binding inhibition; 290,000 tested, 1% active; P11940; inhibition, % at 35 µM; PABP-poly(A) RNA binding, fluorescence polarization;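 active = 50% or more with normal probe brightness, or confirmed in later tests; inconclusive = above 50% with abnormal brightness, or retests that disagree; inactive = below 50% or failed in later tests; about a fifth of its hits are not listed in these tables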;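 note: calls also rest on retests at 20 µM and on dose response follow-up; controls were probe without protein and protein plus probe with vehicle; some compounds called inactive have numbers as strong as hits; many hits fall short of the cut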
# Target sequence (P11940 whole entry, looked up): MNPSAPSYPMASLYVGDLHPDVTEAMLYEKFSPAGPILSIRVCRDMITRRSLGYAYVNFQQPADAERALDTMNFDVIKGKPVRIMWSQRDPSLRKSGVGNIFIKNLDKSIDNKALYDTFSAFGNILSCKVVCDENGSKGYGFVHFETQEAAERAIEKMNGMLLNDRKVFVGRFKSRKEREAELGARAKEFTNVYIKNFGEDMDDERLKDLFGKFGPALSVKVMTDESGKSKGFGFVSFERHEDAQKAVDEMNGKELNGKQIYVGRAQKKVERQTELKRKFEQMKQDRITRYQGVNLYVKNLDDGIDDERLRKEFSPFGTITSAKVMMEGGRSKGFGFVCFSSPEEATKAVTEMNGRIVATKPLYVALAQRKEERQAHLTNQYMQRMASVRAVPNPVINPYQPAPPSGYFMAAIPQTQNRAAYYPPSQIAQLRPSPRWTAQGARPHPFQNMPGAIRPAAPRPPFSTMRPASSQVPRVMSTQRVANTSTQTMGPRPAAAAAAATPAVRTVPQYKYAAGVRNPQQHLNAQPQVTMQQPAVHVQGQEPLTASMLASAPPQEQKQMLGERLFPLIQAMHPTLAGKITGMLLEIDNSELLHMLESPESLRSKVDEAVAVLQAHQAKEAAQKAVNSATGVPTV
# Rce1 inhib = blocks yeast Ras-converting enzyme. yeast membranes, quenched prenylated peptide cleavage fluorescence. AID 2563. calls only. 290,000 tested, 0.27% active. Q03530;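 active = fall in fluorescence gain of 50% or more versus controls, with final raw signal at or below 3038400; inconclusive = same 50% fall but final raw signal above 3038400; inactive = fall in fluorescence gain under 50%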;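 note: plate controls were neutral control wells for no effect and wells lacking membranes for full effect; tested at 10 µM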
# CSC inhib = cancer stem cell inhibition | cancer stem cell-like cells viability, luminescence | inhibition, % at 7.5 µM | 300,000 tested, 1.1% active | AID 2717;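 active = mean at 75% or more and at least half the replicates too; inconclusive = mean and replicates disagree; tested in HMLE shEcad cells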;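 note: 0% = median of negative and 100% = median of positive control wells; the first replicate is given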
# Env fusion inh = blocks HIV Env-driven cell-cell fusion; HeLa-JRFL Env/CEM21 cell fusion, luciferase; inhibition, % at 12.3 µM; 360,000 tested, 1.1% active;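 active = mean replicate inhibition score of at least 50 and every replicate individually at or above 50; inconclusive = only one of the two criteria met; inactive = mean below 50 and not all replicates reaching 50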;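 note: 0% = plate neutral controls and 100% = maraviroc near 300 nM; one replicate is shown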
# eIF4H inh = inhibitors of RNA binding by human eIF4H; eIF4H fluorescence polarization binding assay; inhibition, % at 35 µM; AID 2012; 290,000 tested, 0.94% active; Q15056;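 active = 50% or more with normal probe brightness, or confirmed in later tests; inconclusive = above 50% with abnormal brightness, or retests that disagree; inactive = below 50% or failed in later tests; about a fifth of its hits are not listed in these tables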;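 note: calls also rest on retests at 20 µM and on dose response follow-up; 0% = protein and probe with vehicle and 100% = probe without protein; strong numbers were not always called active; many hits fall short of the cut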
# MT1-MMP act inh = blocks activation of human MT1-MMP | P50281 | HT1080 RFP-PRO-GFP cells, GFP/RFP ratio fluorescence, overnight; percent of plate control window, DMSO zero | GFP/RFP ratio change, % at 20 µM | 360,000 tested, 0.061% active;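 active = GFP/RFP ratio change of at least 30% with cell ATP level not reduced by more than half and red fluorescence within 50% of control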; note: strong numbers were not always called active
#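 Assay system: RFP-PRO-GFP reporter HT1080 cells; read-out basis: GFP/RFP fluorescence ratio; benchmarks: DMSO wells and RFP-L50D-GFP cells; doses: 20 µM single dose, 1% DMSO; schedule: overnight cell settling, then overnight compound exposure, 37 °C, 5% CO2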
# Yeast UUG start = modulators of start codon recognition fidelity in yeast; S. cerevisiae UUG-firefly luciferase reporter, luminescence/redox ratio; activity score, % at 18.7 µM; 350,000 tested, 0.13% active; AID 602363;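 active = replicate mean at a twofold rise or more, about +100% in these data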;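 note: firefly luciferase made from a UUG start codon reports start codon fidelity; reporter light over untreated wells divided by growth signal over untreated wells; some hits fall short of that in this replicate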
# MT1-MMP act inh RFP = further read-out of MT1-MMP act inh, marked with its call; RFP signal change, %; measured here: RFP expression control read;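 0 = vehicle wells; hits needed this value within 50% of zero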
# An asterisk follows results filed as active; i = inactive; ? = inconclusive; nt = no result given; & = joins results of further samples; [ ] = dose if it differs, or a comment.
SMILES,PABP FP inh,Rce1 inhib,CSC inhib,Env fusion inh,eIF4H inh,MT1-MMP act inh,MT1-MMP act inh RFP,Yeast UUG start
Cc1ccc(N(Cc2cc(=O)[nH]c3ccccc23)C(=O)C(C)C)cc1,9,i,nt,-56,8,nt,nt,13
N#C/C(=C(/O)c1cccs1)c1nnc2n1CCCCC2,0,i,5,-6,2,0,5,-31
O=S1(=O)c2ccc(Br)cc2OC(COCc2ccccc2)CN1Cc1ccccc1 (stereo not drawn),nt,nt,nt,10,nt,-4,-10,-10
COc1cccc(/C=C/c2ccc3ccccc3n2)c1OC(C)=O,2,i,104*,-195,-8,-4,-6,nt
CCN1CCCC1CNC(=O)c1cc2c(-c3cccc(OC)c3)nn(C)c2s1 (stereo not drawn),-14,i,1,-58,-3,0,-2,10
Cc1nnc(SCC(=O)N(C2CCCCC2)C2CCS(=O)(=O)C2)n1N (stereo not drawn),nt,i,8,-6,nt,2,2,-7
COc1ccccc1-c1nnc(-c2ccc(C)cc2)o1,nt,i,-17,-108,nt,1,5,-21
CC1(C)Cc2ccccc2-c2nnnn21,-2,i,-3,nt,-4,-2,-2,-18
O=C(NCc1ccccc1)C1=C[C@@H](c2csc3ccccc23)C[C@@H](OCc2ccc(CO)cc2)O1,-7,i,22,31[16.7 µM],-14,-9,-19,-12&-9
CCn1c(C(=O)N2CCC(C(=O)N3CCN(c4ccccn4)CC3)CC2)cc2sccc21,-6,i,10,9,-4,-2,-3,-4
CC1CCCN(C(=O)c2cc3c(=O)n4ccccc4nc3s2)C1 (stereo not drawn),-6,i,nt,-17,8,2,6,-7
CCN(CC(=O)Nc1ccccc1OC)C(=O)CCc1ccccc1,2,i,nt,7,-13,1,-2,-8
COc1ccccc1C(OC(=O)c1cccs1)C(=O)NCc1ccco1 (stereo not drawn),3,i,6,-3,-8,-2,6,-17
COc1cccc(CNc2nc3cc(-c4cccc(C(F)(F)F)c4)sc3c(=O)n2C)c1,nt,nt,nt,17,nt,4,-12,-14
O=C(COc1ccc(/C=N/NS(=O)(=O)c2ccccc2)cc1)N1CCOCC1,-2,i,-7,3,-6,-5,-2,nt
CC(Sc1ncc(C(F)(F)F)cc1Cl)C(=O)NC(N)=O (stereo not drawn),-14,i,-5,-3,5,0,3,-5
COc1cccc(NC(=O)CN(C)C(=O)c2ccc3c(c2)CC(c2ccccc2)OC3=O)c1 (stereo not drawn),nt,nt,2,48,nt,-2,-6,11
Cc1ccc(C(=O)NCC(=O)N2CCCCCCC2)cc1,nt,nt,-21,-3,nt,1,3,-10
Cc1cccc(C)c1OCc1cc(C(=O)N2CCCC2c2nonc2C)no1 (stereo not drawn),5,i,8,10,-1,-1,-4,-18
Cn1c(SCC(=O)NC2CCS(=O)(=O)C2)nnc1-c1ccco1 (stereo not drawn),nt,nt,-1,nt,nt,-2,0,10
O=C1CSC(=S)N1/N=C/c1ccc(O)c(O)c1O,74*,i,-5,nt,80*,-2,21,-16
Cc1cc(C(=O)Nc2ccc3c(c2)CCC3)ccc1[N+](=O)[O-],nt,i,7,-96,nt,-1,-6,-6
COc1ccc(Cl)cc1C(=O)Nc1nc2ccc(S(C)(=O)=O)cc2s1,0,i,6,nt,0,nt,nt,nt
CNC(=O)c1ccc2cc(OC)c(OC)cc2c1,nt,nt,nt,?,nt,4,1,-10
COc1ccc(C(CNC(=O)c2ccc(OCc3csc(C)n3)cc2)N2CCCC2)cc1 (stereo not drawn),nt,nt,nt,-5,nt,3,2,-8
COC(=O)c1cc2ccsc2n1CC(=O)N(C)c1ccccc1,-5,i,nt,29,-6,4,-1,8
N#C/C(=C\c1ccc[nH]1)C(=O)N1CCCCC1,9,i,6,-5,-2,3,4,-7
CCOC(=O)CN1CC23C=CC(O2)C(C(=O)NC2CCCCC2)C3C1=O (stereo not drawn),-4,i,-3,0,-1,-1,2,-14
CC(C)Cn1c(SCC(=O)N2CCN(S(=O)(=O)c3ccccc3)CC2)nc2ccccc21,-9,i,-5,-1,2,-7,-10,10
O=C(Nc1cccnc1)c1cc(-c2cccc(Br)c2)nc2ccccc12,-8,i,14,-35,7,0,-1,-14
O=C(NCc1ccco1)c1ccc2sc([C@@H]3O[C@H](CO)[C@H](O)[C@H](O)[C@H]3O)nc2c1,nt,nt,nt,-1,nt,3,4,6
CC1CCC(NC(=O)CC(NC(N)=O)c2ccccc2Cl)CC1 (stereo not drawn),-6,i,3,2,17,-2,0,-11
Cc1cc(NC(=O)CCC(=O)N(CC(=O)NC2CCCC2)c2ccc(Cl)c(Cl)c2)no1,7,i,nt,8,0,-1,-3,-12
O=c1c2ccccc2nnn1Cc1ccc(Br)cc1,7,i,-4,-6,8,-3,-1,0
CCOc1cc(NC(=S)NCCCOC)c(OCC)cc1NC(=O)c1cccs1,-1,i,-9,-10,-6,5,0,nt
CCC(C)(C)NC(=O)c1ccccc1Oc1ccccc1,6,i,21,9,10,-11,-5,nt
CCSc1ccccc1C(=O)N1CCN(c2ccc([N+](=O)[O-])cc2)CC1,6,i,nt,14,-2,5,-21,nt
COc1ccccc1NC(=O)C1=C(C)NC(SCC(=O)Nc2ccc(C(=O)O)cc2)=C(C#N)C1c1cccs1 (stereo not drawn),15,i,-10,0,5,-4,-1,10
O=C(CCC1CCCCC1)Nc1ncn[nH]1,-6,i,-3,-68,-8,3,5,-6
CSCCC(C(=O)Nc1c(C)cccc1C)N1CCC(Cc2ccccc2)CC1 (stereo not drawn),nt,nt,nt,1,nt,-6,-6,-13

# One compound at a time, from the list above. Values in the order: PABP FP inh	Rce1 inhib	CSC inhib	Env fusion inh	eIF4H inh	MT1-MMP act inh	MT1-MMP act inh RFP	Yeast UUG start
# O=C(Nc1cccnc1)c1cc(-c2cccc(Br)c2)nc2ccccc12 across the screens: -8	i	14	-35	7	0	-1	-14
# Cc1cc(C(=O)Nc2ccc3c(c2)CCC3)ccc1[N+](=O)[O-] across the screens: nt	i	7	-96	nt	-1	-6	-6

# Remaining list, next part
SMILES,PABP FP inh,Rce1 inhib,CSC inhib,Env fusion inh,eIF4H inh,MT1-MMP act inh,MT1-MMP act inh RFP,Yeast UUG start
CCCCC(=O)OCCNC(=O)c1cc2ccccc2oc1=O,-8,i,-11,nt,-5,nt,nt,12
COn1c(=O)c(-c2ccc(C)cc2)[n+]([O-])c2ccccc21,3,i,-9,5,4,1,3,-36
CCOC(=O)c1c(N)c(C#N)c2n1CCCCC2,1,i,20,nt,-2,-9,1,-3
O=C(Nc1ccccc1N1CCCC1)c1ccccc1F,-10,i,-3,-6,8,-3,-9,-6
COc1ccc(C(=O)/C(=C/c2cccs2)c2nc3ccccc3o2)cc1,1,i,-12,-174,0,-4,-6,-3
CNC(=O)CC12CC3CC(CC(C3)C1)C2,1,i,-3,nt,-2,-1,3,-18
O=C(CCN1CCC(c2ccccc2)C1)c1ccccc1 (stereo not drawn),4,i,nt,nt,2,-2,0,-17
O=[N+]([O-])c1cccc(Cl)c1NCCNc1ncc(C(F)(F)F)cc1Cl,-3,i,-1,nt,-13,3,-1,-4
C[C@H]1CCCCO[C@H](CN(C)C(=O)Nc2ccc(F)cc2)[C@@H](C)CN([C@@H](C)CO)C(=O)c2cc(NC(=O)Nc3ccc4c(c3)OCO4)ccc2O1,nt,nt,nt,18,nt,8,-9,6&5
Cc1cc(NC(=O)CSc2nnc(-c3cccnc3)n2Cc2ccccc2)no1,0,i,-8,2,-4,-4,-2,-19
O=S1(=O)CCC(NC(=S)N2CCCCCC2)C1 (stereo not drawn),-4,i,-10,-13,12,0,3,-1
FCCCOc1ccc(-c2ccnc3ncnn23)cc1,-9,i,-13,-8,-6,4,7,-12
Cc1ccc(C)c(N2CCN(c3nc4ccccc4c(=O)n3Cc3ccccc3)CC2)c1,-3,i,nt,11,-6,-18,-14,6
COc1cccc(/C=C2/SC(=S)N(CC(=O)NNC(=O)c3ccccc3O)C2=O)c1,6,i,nt,11,0,10,13,-13
CCOC(=O)c1ccc(NC(=O)COc2ccccc2CNCCO)cc1,4,i,-3,0,2,1,3,nt
CC1CCCCC1NC(=O)c1cc2ccccc2o1 (stereo not drawn),-13,i,-14,2,13,-3,-4,nt
O=C(NN1CCN(Cc2ccccc2Cl)CC1)c1ccc(Br)cc1,-2,i,-14,10,-12,4,-4,-16
O=[N+]([O-])c1ccc(O)c(C=Nc2ccc3oc(Cc4ccc(Cl)cc4)nc3c2)c1,0,i,7,nt,15,nt,nt,nt
CCOc1ccc2nc(NC(=O)C(CC)Sc3nc(C)cc(=O)[nH]3)sc2c1 (stereo not drawn),8,i,4,nt,-3,5,-1,-32
COc1cc(CCC(=O)Nc2sccc2C#N)cc(OC)c1OC,-9,i,-9,7,-4,0,-5,-14

# Three entries already listed, arranged by their value in MT1-MMP act inh, high to low.
SMILES	MT1-MMP act inh
O=[N+]([O-])c1cccc(Cl)c1NCCNc1ncc(C(F)(F)F)cc1Cl	3
COn1c(=O)c(-c2ccc(C)cc2)[n+]([O-])c2ccccc21	1
CCOC(=O)c1c(N)c(C#N)c2n1CCCCC2	-9

# The listing continues:
SMILES,PABP FP inh,Rce1 inhib,CSC inhib,Env fusion inh,eIF4H inh,MT1-MMP act inh,MT1-MMP act inh RFP,Yeast UUG start
CC(=O)Nc1ccc(S(=O)(=O)NCC2CC3CCC2C3)cc1 (stereo not drawn),nt,nt,nt,-5,nt,4,-7,-12
COc1cccc(C(=O)N2CCC(n3nccc3NC(=O)C(OC)c3ccccc3)CC2)c1 (stereo not drawn),1,i,13,-1,0,1,2,-5
CCN(CC)C(=O)CSc1ncnc2sccc12,10,i,-11,14,-6,1,-2,nt
CC(=O)/C(=C(/O)c1ccccc1)c1nc2ccccc2[nH]1,-6,nt,5,4,-6,-10,-4,-22
COc1c(C)cc(C(O)c2ncc(-c3cccc(C(F)(F)F)c3)[nH]2)cc1C (stereo not drawn),nt,nt,nt,17,nt,4,-7,-22
Cc1nonc1CN(C)C(=O)c1ccc(OC2CCN(Cc3ccccn3)CC2)cc1,2,i,-14,-6,-1,-4,-5,1
O=C(/C=C/c1ccccc1)NCCS(=O)(=O)N1CCN(c2ccccc2)CC1,nt,i,0,-2,nt,0,-3,-16
CC(C)N(C1=CC(=O)OC12CCCCC2)C(C)C,-9,i,-8,2,-8,-1,-2,-7
CN(CCOc1ccc(Cl)cc1)C(=O)c1ccc2c(=O)n3c(nc2c1)CCC3,nt,i,-1,-5,nt,3,4,-5
CC(=O)/C(=N/Nc1ccccc1C)N1CCOCC1,7,i,7,-25,-8,12,2,-4

# Taken from above.
# Value for O=C(/C=C/c1ccccc1)NCCS(=O)(=O)N1CCN(c2ccccc2)CC1 under MT1-MMP act inh: 0
# Value for COc1cccc(C(=O)N2CCC(n3nccc3NC(=O)C(OC)c3ccccc3)CC2)c1 (stereo not drawn) under eIF4H inh: 0
# Value for CCN(CC)C(=O)CSc1ncnc2sccc12 under eIF4H inh: -6
# Value for Cc1nonc1CN(C)C(=O)c1ccc(OC2CCN(Cc3ccccn3)CC2)cc1 under eIF4H inh: -1
# Value for CC(C)N(C1=CC(=O)OC12CCCCC2)C(C)C under Yeast UUG start: -7

# This is a subset (hit frequency here may not be typical).
